From PubChem BioAssay
VACV Venus inh: vaccinia inhibition (Venus reporter); AID 720580; Vaccinia virus Venus reporter expression, fluorescence; 0.46% of 330,000 active; Potency, µM (top dose mostly 36.5 µM), inactives show at the top dose activity change, negative = inhibition, usual class: inhibitors; active means well fitted inhibition curve with a large enough effect; inconclusive means small, poorly fitted or top-dose-only effect; inactive means no such curve, though single readings can be large or run the other way; tested in A549 cells; also: nearly all actives have a fitted effect of over 30% in size; inactives centre near -10
Vaccinia mCherry: vaccinia inhibition (mCherry reporter); Vaccinia virus mCherry reporter infection, fluorescence; about a quarter of the inactives have no number; Potency, µM (doses to about 36.5 µM), without a hit: top-dose activity change, negative = inhibition, most hits filed as inhibitors; 0.63% of 310,000 active; active = well fitted inhibition curve with a large enough effect; inconclusive = small, poorly fitted or top-dose-only effect; inactive = no such curve, though single readings can be large or run the other way; tested in A549 cells; also: nearly all actives have a fitted effect of over 35% in size; inactives centre near -10
Numbers without * were called inactive; i = inactive; ? = inconclusive; / = no result given; & = joins results of further samples; [ ] = another dose, or the depositor's remark. % is scaled to controls: 0 for no effect and ±100 for the full control effect; potency is read from the fitted curve at half-maximal effect. Compounds as they come; any-hit rate near 0.87%.

Structure,VACV Venus inh,Vaccinia mCherry
Cc1cccc(NC(=O)COC(=O)c2ccccc2OCc2cccc(Br)c2)c1,-15%,i
Cc1ccccc1N(Cc1cc(=O)[nH]c2ccccc12)C(=O)C(C)C,-10%,-14%
Cc1c(Cl)cccc1NC(=O)CCN1CCCCC1,-5%,-17%
COc1ccc(-c2cc(C(=O)N3CCCCCC3)no2)cc1,-9%,-13%
O=C(CSc1nc2ccccc2c(=O)[nH]1)NCc1ccc(Cl)cc1,-5%,/
Nc1c(C(=O)Nc2ccccc2F)sc2nc(Cc3ccccc3)cc(C(F)(F)F)c12,-7%,?
N#Cc1cc([N+](=O)[O-])ccc1NCCN1CCOCC1,-10%,i
COc1ccc(CN2CCN(C(=O)Cc3ccccc3)CC2)cc1OC,-6%,i
COc1ccc(Cn2c(SCC(=O)NCc3ccccc3)nc3ccccc32)cc1,-13%,-1%
Nc1ncc2c(n1)CCN(c1ccc([N+](=O)[O-])cc1)C2,-15%,?
CCOC(=O)c1cnc2c(C)c(Cl)ccc2c1N1CCOCC1,-20%,1%
O=C(CCn1nnc2ccccc21)OCC(=O)c1ccc([N+](=O)[O-])cc1,-1%,-20%
COc1cccc(C(C2=C(O)CC(C)(C)CC2=O)C2C(=O)CC(C)(C)CC2=O)c1 (centres undefined),-13%,-14%
CCOC(=O)C(C)(C)Oc1cccc2c1S(=O)(=O)c1ccccc1-2,-3%,-13%
CCSc1nnc(C)c2ccccc12,-7%,/
CCCn1c(C(C)C)n[nH]c1=S,3%,-25%
O=C(NCc1ccccn1)c1nn(-c2ccccc2F)nc1CO,-25%,-17%
CCCN1Cc2cccc(C(=O)Nc3ccc4c(c3)OCO4)c2C1=O,4%,-11%
O=C(COC(=O)c1ccc(S(=O)(=O)Nc2ccccc2)cc1)NC1CCCC1,-12%,-2%
Cc1ccc(N(C(=O)c2csnn2)C(C(=O)NCc2ccccc2)c2ccccn2)cc1 (centres undefined),-5%,-11%
O=C(c1c[nH]c2ccc(S(=O)(=O)N3CCOCC3)cc2c1=O)N1CCCC1,-7%,/
O=c1c2ccccc2cnn1CCOc1ccccc1,-10%,i
COc1cc(/C=C/C(=O)OCC(=O)Nc2nnc(-c3ccccc3)o2)cc(OC)c1OC,-20%,-11%
CN1C2C=CC(=O)C1C1C(=O)N(c3ccccc3)C(=O)C12 (centres undefined),-4%,36%[activator]
Cc1cccnc1NC(=O)C1CCN(S(=O)(=O)c2cccs2)CC1,-2%,i
COc1ccccc1CNS(=O)(=O)c1c(C)[nH]c(C)c1C(=O)N1CCCC1,-18%,i
CCOC(=O)C(CSCC(=O)c1ccc(Cl)cc1)NC(=O)OC(C)(C)C (centres undefined),-4%,/
CC(C(=O)c1ccc(-c2ccccc2)cc1)[n+]1cccc(NC(=O)c2ccccc2)c1 (centres undefined),-17%,-14%
N/C(=N\OC(=O)c1ccc(Cl)cc1)c1ccc(Cl)cc1,-8%,/
COc1ccc(CNC(=O)CCc2ccc(S(=O)(=O)N3CCCCCC3)cc2)cc1OC,-15%,-23%
CCOC(=O)c1cc(C)n(S(=O)(=O)c2ccc(C)cc2)c1C,-16%,-8%[1.46 µM]
CC(C)Cn1c(SCC(N)=O)nnc1-c1cccc(S(=O)(=O)N2CCOCC2)c1,-9%,-6%
CCc1nc2ccccc2c2nc3ccccc3n12,?,-24%
O=C(CNC(=S)N(CCCN1CCOCC1)Cc1cccs1)NC1CCCCC1,-16%,i
Cn1c(CN2CCOCC2)nc2cc(NC(=O)c3ccccc3[N+](=O)[O-])ccc21,-6%,i
C#CCOCCOCCOCCNc1nc(N2CCN(C(=O)[C@H]([C@@H](C)CC)n3cc(CCCN=C(N)N)nn3)CC2)nc(N2CCN(C(=O)[C@H](CCCCN)n3cc(CC(C)O)nn3)CC2)n1 (some centres undefined),-5%,i
Clc1cccc(-c2nc(NCC3CCCO3)c3ccccc3n2)c1 (centres undefined),-24%,-19%
Cn1c(-c2cc3c(C(F)(F)F)nn(C)c3s2)n[nH]c1=S,-22%,/
CCCCOC(=O)CCc1n[nH]c(=O)[nH]c1=O,-8%,/
Cc1ccc(SC[C@H](Cc2ccccc2)N2CC[C@@H](C(C)(C)C)CCC2=O)cc1,-8%,i
COc1cccc(-c2nc3nc(C)cc(C)n3c2NCc2ccccc2)c1,-8%,3%
Cc1ccc(S(=O)(=O)N2CCN(S(=O)(=O)N3CCOCC3)CC2)c(C)c1,-16%,i
OC(CSc1ccc(F)cc1)CN1CCN(c2ccccc2)CC1 (centres undefined),-9%,-8%
CCOc1ccc(NS(=O)(=O)c2cc(C(=O)N3CCN(c4ccccc4O)CC3)ccc2Cl)cc1,-25%,-8%
Cc1cc(OCC(=O)N2CCN(c3ccccn3)CC2)c(C)cc1Br,-14%,-18%
CCOCCCNCc1ccc(OCc2ccccc2Cl)cc1,-21%,i
O=C(O)CCc1nnc(SCC(=O)Nc2cccc(C(F)(F)F)c2)[nH]c1=O,2%,i
O=C(CCc1ccccc1)OCC(=O)c1cccc([N+](=O)[O-])c1,-13%,i
Cc1ccccc1N1CCN(S(=O)(=O)c2nnc(NC(=O)c3ccc(F)cc3)s2)CC1,-16%,-5%
CCO[C@@H]1OC(C(=O)N2CCOCC2)=C[C@H](c2coc3ccccc3c2=O)[C@H]1CCCO,-16%,-2%
Cc1cccc(OCC(=O)N(Cc2ccc(N(C)C)cc2)Cc2ccco2)c1C,-12%,-21%
COc1ccc(Br)cc1[C@@H]1Nc2ccc(C(=O)O)cc2[C@@H]2C=CC[C@@H]21,8%,-6%
CCOC(=O)c1nc2ccccc2c(=O)n1-c1ccc(C)cc1,-17%,/
O=C(NCCn1cccn1)c1ccc(OC2CCN(CCc3ccccc3)CC2)cc1,-7%,-12%
Cc1ccc2c(c1)c1c(n2C)C(=O)CCC1,-12%,-8%
CC(C)(C)C#CCn1c(/C=[N+](\[O-])C2CCCCC2)nc2ccccc21,-9%,i
c1ccc(C(c2ccccc2)c2nc(-c3cccnc3)no2)cc1,-15%,i
Cc1ccc(-c2cc(NC(=O)COc3ccc(Cl)cc3C)on2)cc1,-15%,-19%
COc1cnc(-c2ccccc2)nc1Oc1ccccc1C,2%,/
CS(=O)(=O)c1cnc(-c2ccccc2)nc1-c1ccc(Cl)c(Cl)c1,-8%,-29%

Pulled by compound from the entries so far:
Structure,VACV Venus inh,Vaccinia mCherry
CCOC(=O)c1cc(C)n(S(=O)(=O)c2ccc(C)cc2)c1C,-16%,-8%[1.46 µM]
O=C(CCc1ccccc1)OCC(=O)c1cccc([N+](=O)[O-])c1,-13%,i

A draw from above in order of molecular weight, highest first.
Structure,VACV Venus inh,Vaccinia mCherry
COc1ccc(CNC(=O)CCc2ccc(S(=O)(=O)N3CCCCCC3)cc2)cc1OC,-15%,-23%
CCO[C@@H]1OC(C(=O)N2CCOCC2)=C[C@H](c2coc3ccccc3c2=O)[C@H]1CCCO,-16%,-2%
COc1ccc(Cn2c(SCC(=O)NCc3ccccc3)nc3ccccc32)cc1,-13%,-1%
Cc1ccc(S(=O)(=O)N2CCN(S(=O)(=O)N3CCOCC3)CC2)c(C)c1,-16%,i
COc1ccc(Br)cc1[C@@H]1Nc2ccc(C(=O)O)cc2[C@@H]2C=CC[C@@H]21,8%,-6%
Cc1cccc(OCC(=O)N(Cc2ccc(N(C)C)cc2)Cc2ccco2)c1C,-12%,-21%
CS(=O)(=O)c1cnc(-c2ccccc2)nc1-c1ccc(Cl)c(Cl)c1,-8%,-29%
Cc1cccnc1NC(=O)C1CCN(S(=O)(=O)c2cccs2)CC1,-2%,i
O=C(CSc1nc2ccccc2c(=O)[nH]1)NCc1ccc(Cl)cc1,-5%,/
COc1ccc(CN2CCN(C(=O)Cc3ccccc3)CC2)cc1OC,-6%,i
CCOC(=O)C(C)(C)Oc1cccc2c1S(=O)(=O)c1ccccc1-2,-3%,-13%
Clc1cccc(-c2nc(NCC3CCCO3)c3ccccc3n2)c1 (centres undefined),-24%,-19%
CC(C)(C)C#CCn1c(/C=[N+](\[O-])C2CCCCC2)nc2ccccc21,-9%,i
CN1C2C=CC(=O)C1C1C(=O)N(c3ccccc3)C(=O)C12 (centres undefined),-4%,36%[activator]

Later entries.
Structure,VACV Venus inh,Vaccinia mCherry
COc1ccc(S(=O)(=O)Nc2cccc3ccc(O)cc23)cc1,-30%,?
CC(C)CN(C(=O)c1nn(C)c(=O)c2ccccc12)c1nc2ccccc2s1,-7%,/
CC1=CC(=O)C(C(C)=Nc2ccccc2Cl)C(=O)O1 (centres undefined),-3%,1%
COc1cccc(CNc2cccc(C(F)(F)F)c2)c1O,0%,?
O=C(Nc1cccc(O)c1)c1cc2nc(-c3ccccc3)cc(-c3ccccc3)n2n1,-23%,?
COCCNC(=S)NC12CC3CC(CC(C3)C1)C2,-14%,i
CCc1ccc(CN2C(=O)c3ccccc3C2C(=O)NC(C)CC)cc1 (centres undefined),-14%,0%
Cc1ccc(S(=O)(=O)C2(C(=O)Nc3ccc4c(c3)OCO4)CC2)cc1,-6%,i
O=C(NC1CCCCC1)C(c1cccnc1)N(C(=O)CCl)c1ccc(F)cc1 (centres undefined),?,7.9µM*
CN(C)CCCNC(=S)N(Cc1cccs1)Cc1cc2cc3c(cc2[nH]c1=O)OCCO3,0%,-6%
CCn1c(-c2ccco2)n[nH]c1=S,-1%,-7%
O=C(Nc1nncs1)c1cc(S(=O)(=O)N2CCCCC2)ccc1Cl,0%,-11%
O=C(Nc1ccccc1-c1nc2ccccc2s1)c1ccco1,-18%,-4%
CCCCOc1ccc(C(=O)Nc2ccc(SC(F)F)cc2)cc1OC,-12%,i
COc1ccc(Cc2nnc(NC(C)=O)s2)cc1,-7%,i
C=CCn1c(SCC(=O)Nc2c(C)nn(Cc3ccccc3)c2C)nnc1C(O)c1ccccc1 (centres undefined),-14%,-7%
COc1ccc(Cl)cc1NC(=O)CCc1nc(-c2ccccc2F)no1,10%&-11%,3%&-4%
CN(C)CCCNc1cc(C(C)(C)C)nc2c(-c3ccccc3)cnn12,-24%,-21%
COc1ccc(N(CC(=O)N2CCN(C)CC2)S(=O)(=O)c2cc(C)ccc2OC)cc1Cl,-14%,i
COc1ccc(Cl)cc1NC(=O)COC(=O)CC(C)(C)CC1=NS(=O)(=O)c2ccccc2N1,-14%,-8%
Cc1cc(S(=O)(=O)N2CCCCC2)ccc1OCC(=O)N1CCOCC1,-4%,-9%
Cc1cccc2c(=O)cc(CSc3ccccc3NC(=O)C(C)C)[nH]c12,0%,4%
COc1ccc(/C=C/C(=O)Nc2nc3n(n2)C(c2ccccc2)C=C(c2ccc(Cl)cc2)N3)cc1 (centres undefined),-8%,-8%
CN=C(NC1CCCCC1)c1ccc(Cl)cc1,-5%,-1%
CCCc1nc(-c2cc3cc(C)ccc3[nH]c2=O)no1,-14%,-22%
COc1ccc(C(=O)Nc2c(C(=O)c3ccccc3)oc3ccccc23)cc1,10%,-4%
OCCN=Cc1c(O)[nH]c2ccccc12,-19%,-10%[1.46 µM]
COc1ccc(CCNC(=O)Cn2c([N+](=O)[O-])cnc2C)cc1OC,2%,-6%
Cc1ccc(/C(O)=C2/C(=O)C(=O)N(Cc3ccco3)C2c2cccs2)cc1 (centres undefined),2%,-25%
CCOC(=O)C1CCN(S(=O)(=O)c2cc3c4c(c2)C(C)C(=O)N4CCC3)CC1 (centres undefined),-9%,-12%

The results go on:
Order of values: VACV Venus inh | Vaccinia mCherry
> ON=C1C2CC=C(c3ccccc3)C1CCC2 (centres undefined)
→ -16% | -1%
> c1ccc(CN2CCN(c3nc4ccccc4n4cnnc34)CC2)cc1
→ ? | -11%
> Cc1ccc(NC(=O)CSc2nc(=O)n(CCN(C)C)c3c2CCCC3)cc1Cl
→ -28% | -11%
> COc1ccc(C(=O)O)cc1S(=O)(=O)NCCc1ccccn1
→ -2% | -7%
> O=c1c2[nH]c3ccc(F)cc3c2ncn1CC1CCCO1 (centres undefined)
→ 0% | -3%
> Cc1ccc(NC(=O)Cn2cc(S(=O)(=O)Cc3cccc(Cl)c3)c3ccccc32)cc1C
→ -7% | -7%
> CC(Oc1ccc2ccccc2c1)C(=O)NNC(=S)NC(=O)c1ccco1 (centres undefined)
→ -25% | -22%
> CCN(Cc1ccccc1)C(=O)c1cccs1
→ -4% | -12%
> COc1ccc(CSc2nc(C)cc(C)c2C#N)cc1
→ -26% | -13%
> C=CCNc1nc(Nc2ccc(Cl)cc2)nc(OC)n1
→ -11% | i
> CCOC(=O)c1cc(C#N)c(N2CCN(C)CC2)nc1-c1ccccc1
→ 1% | -12%
> COc1ccc(NC(=O)c2cc([N+](=O)[O-])ccc2N2CCCCC2)cc1OC
→ -10% | i
> C=CC[C@@H](CC(=O)N[C@H](CO)Cc1ccccc1)C(=O)N[C@@H](COC(=O)[C@@H](CC=C)Cc1ccc(F)cc1)Cc1ccccc1
→ 0% | i
> C(=C1c2ccccc2-c2ccccc21)c1ccncc1
→ ? | ?
> COc1ccc(C)cc1NC(=O)C12CCC(C)(C(=O)O1)C2(C)C (centres undefined)
→ -9% | -12%
> O=C(C1CC1)N1CCc2cc(Br)cc(S(=O)(=O)NCC3COc4ccccc4O3)c21 (centres undefined)
→ -22% | -6%
> c1cc2n(c1)-c1c(ccc3c1OCO3)CNC2c1ccc2c(c1)OCO2 (centres undefined)
→ -29% | /
> COc1ccc(CN2CCOc3ccc(C(O)c4cccnc4)cc3C2)c(F)c1 (centres undefined)
→ -9% | -14%
